High-throughput results as filed in PubChem.
CtBP-E1A inh: qHTS Assay for Inhibitors of the CtBP/E1A Interaction | CtBP / adenovirus E1A interaction (AlphaScreen) | AlphaScreen GST-E1A/His-CtBP binding, 1536-well; hits give low values; control for the full effect not named in the record | activity change, % (concentration not given with the values) | actives 0.49% (n = 340,000); in the data active means activity change below about -65%; inconclusive means about -30% to -65%; inactive means above about -30%; note: % is set by controls: 0 for no effect and ±100 for the full control effect
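Homogeneous bead-based format: GST-tagged E1A captured on glutathione donor beads, His-tagged CtBP on nickel acceptor beads; compounds precede bead addition by 2 h at 37 °C.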
gsp agonist: qHTS for Agonist of gsp, the Etiologic Mutation Responsible for Fibrous Dysplasia/McCune-Albright Syndrome: qHTS; Potency, µM (doses to about 76.9 µM), for the others: at the highest dose activation (cAMP increase), hits mostly activators; gsp mutant cells, cAMP HTRF, 30 min; control for the full effect not named in the record; AID 624287, 2012; actives 0.13% (n = 340,000); active = well fitted activation curve with a large enough effect; inconclusive = small, poorly fitted or top-dose-only effect, or another doubt; inactive = no such curve, though single readings can be large or run the other way; cell line not stated here;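 note: phosphodiesterase inhibitor Ro 20-1724 added with compounds to block cAMP breakdown; potency is the fitted concentration of half-maximal effect; nearly all actives have a fitted effect of over 60% in size; about a fifth of the inactives were tested at one dose only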
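Cells in DMEM/10% FBS with G418 were pretreated with compounds in DMSO plus […] (300 uM stock) for 30 min at 37C. cAMP was measured by HTRF (cAMP-d2 plus anti-cAMP antibody-K) after 30 min at room temperature.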
Sfp PPTase inh: qHTS Assay for Inhibitors of Bacillus subtilis Sfp phosphopantetheinyl transferase (PPTase) | Biochemical Sfp PPTase activity, qHTS | Potency, µM, without a hit: max response, negative = inhibition, usual class: inhibitors | actives 3.5% (n = 310,000); active = well fitted inhibition curve with a large enough effect; inconclusive = small, poorly fitted or top-dose-only effect, or another doubt; inactive = no such curve, though single readings can be large or run the other way;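 note: the enzyme is Sfp with the accession as filed and its product quenches rhodamine fluorescence; potency is the fitted concentration of half-maximal effect; 0% = enzyme reaction without inhibitor and -100% = no enzyme wells; top concentration of the series not given in the record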
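Fluorescence-quenching assay: 15 nM Sfp-PPTase preincubated 15 min at room temperature with compound, then 5 uM rhodamine-CoA and 12.5 uM BHQ-2-labelled YbbR peptide added. Fluorescence (ex 525/em 598 nm) read at start and after 30 min; difference gives rate.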
gsp antag: qHTS for Antagonists of gsp, the Etiologic Mutation Responsible for Fibrous Dysplasia/McCune-Albright Syndrome: qHTS; gsp-mutant cells, cAMP HTRF, 30 min; control for the full effect not named in the record; Potency, µM (doses to about 76.9 µM), without a hit: top-dose activity change, negative = inhibition, most hits filed as inhibitors; actives 0.4% (n = 340,000); AID 624288, 2012; active = falling curve of any shape with a large fitted effect; inconclusive = falling curve, mostly with a smaller effect; inactive = flat or rising curve; cell line not stated here;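 note: intracellular cAMP measured with PDE inhibitor Ro 20-1724 present during compound exposure; potency is the fitted concentration of half-maximal effect; % is set by controls: 0 for no effect and ±100 for the full control effect; nearly all actives have a fitted effect of over 65% in size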
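G418-selected cells were plated in DMEM/10% FBS for 16-24 h at 37C, then treated with compounds plus the PDE inhibitor […] (300 uM solution added) for 30 min at 37C. Intracellular cAMP was measured by HTRF after 30 min lysis at room temperature.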
TRPV1 potentiator: HTS Assay for Compounds that Act as Potentiators of the Vanilloid Receptor 1; TRPV1-expressing cells, Fluo-8 calcium influx, capsaicin EC20 potentiation; host cell line not named in the record; control for the full effect not named in the record; potentiation, % at 8.33 µM; actives 0.02% (n = 320,000); AID 540277, 2011; active means potentiation above 80%; inconclusive means 30% to 80%; inactive means below 30%; note: 0% is about no effect
Target sequence (Q8NER1 whole entry, looked up): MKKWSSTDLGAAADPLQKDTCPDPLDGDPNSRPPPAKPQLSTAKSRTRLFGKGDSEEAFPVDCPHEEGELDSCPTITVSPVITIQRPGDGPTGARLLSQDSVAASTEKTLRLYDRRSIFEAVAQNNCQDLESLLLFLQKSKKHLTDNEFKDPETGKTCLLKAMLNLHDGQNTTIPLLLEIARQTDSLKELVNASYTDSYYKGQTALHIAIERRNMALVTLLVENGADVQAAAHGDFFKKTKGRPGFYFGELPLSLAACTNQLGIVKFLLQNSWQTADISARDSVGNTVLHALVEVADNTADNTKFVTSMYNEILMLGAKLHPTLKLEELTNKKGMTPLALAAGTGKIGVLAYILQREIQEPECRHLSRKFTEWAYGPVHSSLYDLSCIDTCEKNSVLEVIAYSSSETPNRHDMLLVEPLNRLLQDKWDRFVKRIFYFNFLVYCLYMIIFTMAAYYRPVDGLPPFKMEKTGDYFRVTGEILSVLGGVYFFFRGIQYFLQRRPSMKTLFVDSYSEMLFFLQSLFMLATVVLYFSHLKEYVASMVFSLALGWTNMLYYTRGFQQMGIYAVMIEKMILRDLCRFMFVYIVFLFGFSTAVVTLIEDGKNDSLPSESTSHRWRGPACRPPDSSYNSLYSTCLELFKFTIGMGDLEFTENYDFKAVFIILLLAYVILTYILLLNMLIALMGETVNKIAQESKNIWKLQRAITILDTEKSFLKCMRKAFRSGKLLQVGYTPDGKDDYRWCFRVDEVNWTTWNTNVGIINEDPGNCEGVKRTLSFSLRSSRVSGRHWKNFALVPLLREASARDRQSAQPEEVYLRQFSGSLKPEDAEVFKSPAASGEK
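Cells expressing TRPV1 were dye-loaded with Fluo-8 and read kinetically: 10 s baseline, 3 min after compound (agonist portion), then 2 min after EC20 capsaicin (allosteric enhancer portion). Calcium-bound dye fluorescence at 480/520 nm.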
Menin MLL FP FL: qHTS Assay for Inhibitors Targeting the Menin-MLL Interaction in MLL Related Leukemias: Competition With Fluorescein Labeled MLL-derived Peptide | Fluorescence polarization, fluorescein-MLL peptide displacement from menin | FP activity change, % at 61.4 µM | 290,000 tested, under 10 active; inconclusive = falling polarisation curve, or a change in total fluorescence; inactive = total fluorescence flat and polarisation flat or rising; no compound was filed as active; the % refers to the polarisation; negative = inhibition;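 note: % of control where 0% means no effect; inhibitors lower the polarisation; unlabelled MLL peptide was the positive control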
ClpP mod: qHTS Assay for Activators of ClpP; purified B. subtilis ClpP, FRET peptide cleavage, 20 min; Potency, µM (series often up to 57.5 µM), for the others: at the top dose activity change, negative = active; ATP-dependent Clp protease proteolytic subunit (Bacillus subtilis (strain 168)), P80244; actives 1.9% (n = 340,000); active = well fitted falling curve with a large enough effect; inconclusive = small, poorly fitted or top-dose-only effect; inactive = no such curve, though single readings can be large or run the other way; note: potency is the fitted concentration of half-maximal effect; the source files actives as falling curves though it sought activators and does not explain the sign; nearly all actives have a fitted effect of over 65% in size; many hits overshoot -100%
Target sequence (P80244 whole entry, looked up): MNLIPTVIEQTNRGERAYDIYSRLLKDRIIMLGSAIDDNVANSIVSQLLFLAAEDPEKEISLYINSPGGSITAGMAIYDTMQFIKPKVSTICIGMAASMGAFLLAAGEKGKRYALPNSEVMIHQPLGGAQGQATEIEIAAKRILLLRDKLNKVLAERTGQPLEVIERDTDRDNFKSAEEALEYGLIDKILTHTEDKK
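FRET quenching reversal measured ClpP activation: 10 microg/mL B. subtilis ClpP at pH 8 with the FRET-FV decapeptide, read at 430 nm after 320 nm excitation. The 20-min minus 0-min signal was scaled between DMSO/no-enzyme wells and ADEP (5.8 microM final).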
An asterisk follows results filed as active; ? = inconclusive; . = no result given; & = joins results of further samples; ! = not confirmed by another sample; [ ] = dose if it differs, or a comment.

canonical_smiles	CtBP-E1A inh	gsp agonist	Sfp PPTase inh	gsp antag	TRPV1 potentiator	Menin MLL FP FL	ClpP mod
CN(C)CCCN1C(=O)c2cccc3c([N+](=O)[O-])ccc(c23)C1=O	-12	?	-48%	?	-24	?	-4.8%
Cc1ccc(NC(=O)c2nc[nH]c2C(=O)N[C@@H](CCCCNC(=O)OC(C)(C)C)C(=O)OC(C)(C)C)cc1	-2	.	22%	-12%	-4	0.7	-17%
COc1cc(C(=O)NN(CCC#N)C2=NS(=O)(=O)c3ccccc32)cc(OC)c1OC	6	-42%[inhibitor]	12%	-11%	4	4.1	.
COc1ccc(NC(=O)c2cc(S(=O)(=O)N3CCOCC3)ccc2C)cc1S(=O)(=O)N1CCCCC1	.	14%	.	-22%	.	.	0.8%
Cc1cc(C)n(-c2ccc(C(F)(F)F)cc2[N+](=O)[O-])n1	6	3%[15.4 µM]	2%	3%	-2	-1.1	.
COc1ccc(S(=O)(=O)N2CCOCC2)cc1NC(=O)COc1ncnc2ccccc12	1	12%	20%	-14%	0	0.0	-6.3%
C[n+]1ccccc1/C=C/c1c(F)cccc1F	1	8%	-62%	-4%	12	0.5	.
CC(=O)NC(=S)Nc1ccc2oc(-c3cc(F)c(F)cc3Cl)nc2c1	.	11%[15.4 µM]	21%	21%	8	3.6	.
O=S(=O)(c1cccc(-c2n[nH]c(=S)n2C2CCCC2)c1)N1CCOCC1	4	18%[15.4 µM]	-10%	-17%	?	2.4	-0.5%
CCN(C1CCCCC1)S(=O)(=O)c1ccc(S(=O)(=O)N2CCN(CCC#N)CC2)cc1	3	-42%[inhibitor]	11%	-1%	8	2.2	1.1%
COc1ccc(C(=O)COC(=O)c2n[nH]c3ccccc23)c(OC)c1	-3	-4%[15.4 µM]	.	-8%	-1	.	-0.8%
C/C(=N\Nc1nc2ccccc2c(=O)n1O)c1ccco1	0	-1%	79µM*	-5%	-11	-1.2	.
Cc1ccc(S(=O)(=O)N2CCC(=O)CC2c2ccccc2)cc1 (stereo not given)	1	.	.	3%	.	.	-2.4%
CN(Cc1nc2ccccc2c(=O)[nH]1)C(=O)c1cc(C2CC2)nn1-c1ccccc1	5	7%	.	-3%	-18	.	-0.6%
COc1ccc(C)cc1NC(=O)NCc1ccco1	1	13%[15.4 µM]	21%	.	5	-0.4	.
O=C(C1=C[C@@H](c2csc3ccccc23)C[C@@H](OCCCCO)O1)N1CCN(Cc2ccc3c(c2)OCO3)CC1	-14	.	1%	-28%	27	-2.0	-2.8%
[O-]/C(=C(\C(=S)Nc1cccc2ccccc12)[n+]1ccccc1)c1ccc(OC(F)F)cc1	-4	-4%[15.4 µM]	45µM*	.	-1	-4.0	.
CCCSc1nnc(NC(=O)Cc2ccc(OC)c(OC)c2)s1	19	4%[15.4 µM]	5%	6%	21	-3.4	.
CN1CCC(N(C)C(=O)COc2ccccc2Cl)CC1	-10	-3%	.	11%	5	.	-0.6%
COc1ccc(N(C(=O)c2snc(C(N)=O)c2N)C(C(=O)NC2CCCC2)c2cc(OC)ccc2OC)cc1 (stereo not given)	-10	5%[15.4 µM]	13%	-13%	2	4.4	-4.3%
Cc1ccc(S(=O)(=O)NN2C(=O)c3ccccc3NC2c2ccccc2F)cc1 (stereo not given)	2	13%[15.4 µM]	9%	-6%	1	.	-0.5%
CC(C)(C)NC(=O)c1c(F)c(F)c(F)c(F)c1F	-1	9%	-2%	0%	14	5.5	-1.0%
CCN(CC)c1ccc(C(=O)NNC(=O)CCl)cc1	-18	8%	?	-6%	123*	6.1	.
COC(=O)CSc1nc2cc(OC)ccc2cc1C#N	0	-16%	7%	-4%	-4	5.8	?
COC(=O)c1ccc(-n2c(CCC(=O)O)ccc2-c2ccccc2)cc1	-11	10%	?	-28%	6	-0.8	-5.2%
O=C(O)/C=C/C(=O)Nc1ccc(Oc2ccccc2)cc1	0	-4%[15.4 µM]	15%	12%	25	-1.8	.
c1c2c(cc3sc(N4CCCCC4)nc13)OCCO2	26	-12%	-20%	-2%	8	4.2	3.4%
O=C(COC(=O)/C=C/c1ccc(C(F)(F)F)cc1)NC(=O)NCc1ccco1	-10	-1%	.	7%	-5	.	-3.2%
CCN1C(=NCCCCO)N[C@@H](c2cccc(F)c2)C(C(=O)OC)=C1C	-15	.	5%&1%	7%	6&-4	0.5&-5.9	-0.8%
Cc1cc(C(=O)COc2ccccc2Cl)c(C)n1-c1ccc2c(c1)OCO2	-2	-2%	-9%	-17%	7	2.3	-1.0%
N#Cc1ccc(-c2csc(NNC(=O)c3ccc(Br)cc3)n2)cc1	-16	11%	13%	-1%	10	-1.1	-2.7%
O=C(Cn1cc([N+](=O)[O-])cn1)NCc1ccco1	2	5%	2%	7%	-4	7.7	2.0%
Cc1ccc(N=c2c([N+](=O)[O-])nn(-c3ccc(Cl)cc3)n2O)cc1C	-12	8%[15.4 µM]	?	9%	-3	0.4	.
Cc1ccc(C(=O)Nc2nc(COc3ccccc3)cs2)s1	9	-13%	6%	-8%	5	3.0	-8.4%
COc1ccc(C(=O)N/N=C(/C)c2cccc(NC(=O)c3ccccc3F)c2)cc1	-1	-51%	16%	-3%	13	.	2.8%
COc1ccc(C2=NN(C(=O)CSc3nc(=O)n4cccc(C)c4n3)C(c3ccc(C)cc3)C2)cc1 (stereo not given)	-2	9%[15.4 µM]	.	?	20	.	0.8%
Cc1nnc(N(Cc2ccco2)C(=O)c2ccc(C#N)cc2)s1	0	13%	-19%	2%	-5	6.9	0.8%
Cc1ccc(CSc2nnc(-c3cnccn3)n2C)cc1	6	14%[15.4 µM]	7%	-7%	1	0.6	.
COc1cc(NC(=O)c2cc3ccccc3o2)ccc1NC(=O)c1ccco1	2	16%[15.4 µM]	-1%	-19%	-1	-2.6	.
C=CCNC(=S)N/N=C(\C)c1cc(OC)c(OC)c(OC)c1	-10	?	16%	13%	-16	2.0	-2.3%
CCN(CC)CCN1C(=O)C(O)=C(C(=O)c2cc3ccccc3o2)C1c1cccnc1 (stereo not given)	1	?	6%	2%	-4	0.4	3.4%
Cc1ccc(OCCn2ccc(=O)[nH]c2=O)cc1C	2	-25%	16%	5%	-2	4.1	0.9%
Cc1ccc2nc(SCC(=O)Nc3cccc4ccccc34)nc(=O)n2c1	0	?	.	5%	9	.	-3.8%
O=C(Nc1nc(-c2cccnc2)cs1)c1ccccc1F	-1	7%[15.4 µM]	9%	1%	-3	0.1	0.4%
COC(=O)c1ccc(Cn2c(O)c(N=NC(N)=S)c3ccccc32)o1	0	-6%	-14%	6%	28	-0.2	0.3%
COc1ccc(-c2coc3cc(O)c(OC)cc3c2=O)cc1	-24	.	.	-11%	2	.	4.4%
O=C(Nc1ccc(Cl)cc1)Nc1ccc(S(=O)(=O)Nc2ncccn2)cc1	12	2%	15%	1%	-5	2.6	1.0%
COc1ccccc1NS(=O)(=O)c1cccc(NC(=O)c2cncc(Br)c2)c1	-28	?	.	?	.	.	.
COc1ccc(-c2csc(N3CCOCC3)n2)cc1OC	-2	20%	-4%	-2%	-5	1.6	-1.4%
Cc1nnc(N)nc1C	-3	-1%	2%	-14%	13	8.3	-1.2%

Following part
canonical_smiles	CtBP-E1A inh	gsp agonist	Sfp PPTase inh	gsp antag	TRPV1 potentiator	Menin MLL FP FL	ClpP mod
Cc1cc(C)n(C(=O)CNC(=O)c2ccc(C(C)(C)C)cc2)n1	.	8%	14%	1%	-13	4.6	1.0%
Cc1cccc(C#Cc2ccccc2)n1	-7	.	50µM*!	6%	-19	?	-6.1%&-9.4%
CCOc1ccc2nc(NC(=O)CSc3nc4c(c(=O)n(C)c(=O)n4C)n3CC)sc2c1	2	-17%	12%	11%	4	2.8	1.2%
COc1ccccc1CCC(=O)N(C)CC(=O)Nc1ccc(F)cc1	-5	15%	14%	11%	29	.	-2.2%
Cn1ccc(C(=O)N/N=C/c2cccnc2)n1	5	-19%[15.4 µM]	5%	8%	?	-3.9	.
CC1Sc2ccc(S(=O)(=O)NCCc3ccccc3)cc2NC1=O (stereo not given)	.	-2%	7%	0%	-21	.	0.7%
C=CCN1/C(=C2/SC(=S)N(C)C2=O)Sc2ccccc21	.	.	-12%	.	12	?	.
CCOC(=O)N1CCN(C(=O)COc2ccc3oc4c(c3c2)CCCC4)CC1	-2	-1%	.	-2%	11	.	1.3%
CCOC(=O)CSc1nc2sc3c(c2c(=O)n1-c1ccccc1)CCN(C)C3	2	5%	-11%	-14%	-2	12	3.9%
COc1ccc(C2(C(=O)Nc3ccc(C)cc3)CCOCC2)cc1	10	-12%[15.4 µM]	6%	8%	2	0.1	.
COc1ccc(C(=O)C2CCCN(Cc3sc(N4CCCC4)nc3Cl)C2)c(OC)c1 (stereo not given)	9	1%	-2%	-31%	-20	-0.9	1.4%
Cc1ccc(NC(=O)c2cccc(NC3=NC4CS(=O)(=O)CC4S3)c2)cc1 (stereo not given)	2	?	-4%	2%	11	1.8	1.3%
CN1CCN(Cc2coc3c(Cl)cc(Cl)cc3c2=O)CC1	.	?	50µM*	8%	6	-0.6	4.0%
